# PABP polyA inh = PABP poly(A) RNA binding inhibitors, primary screen, biochemical, fluorescence polarization, uHTS; Polyadenylate-binding protein 1 (Homo sapiens), P11940; inhibition, % at 35 µM; 290,000 tested, 1% active; AID 2014, 2009;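 active means 50% or more with normal probe brightness, or confirmed in later tests; inconclusive means above 50% with abnormal brightness, or retests that disagree; inactive means below 50% or failed in later tests; about a fifth of its hits are not listed in these tables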;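 further: calls also rest on retests at 20 µM and on dose response follow-up; controls were probe without protein and protein plus probe with vehicle; some compounds called inactive have numbers as strong as hits; many hits fall short of the cut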
# Target sequence (P11940 whole entry, looked up): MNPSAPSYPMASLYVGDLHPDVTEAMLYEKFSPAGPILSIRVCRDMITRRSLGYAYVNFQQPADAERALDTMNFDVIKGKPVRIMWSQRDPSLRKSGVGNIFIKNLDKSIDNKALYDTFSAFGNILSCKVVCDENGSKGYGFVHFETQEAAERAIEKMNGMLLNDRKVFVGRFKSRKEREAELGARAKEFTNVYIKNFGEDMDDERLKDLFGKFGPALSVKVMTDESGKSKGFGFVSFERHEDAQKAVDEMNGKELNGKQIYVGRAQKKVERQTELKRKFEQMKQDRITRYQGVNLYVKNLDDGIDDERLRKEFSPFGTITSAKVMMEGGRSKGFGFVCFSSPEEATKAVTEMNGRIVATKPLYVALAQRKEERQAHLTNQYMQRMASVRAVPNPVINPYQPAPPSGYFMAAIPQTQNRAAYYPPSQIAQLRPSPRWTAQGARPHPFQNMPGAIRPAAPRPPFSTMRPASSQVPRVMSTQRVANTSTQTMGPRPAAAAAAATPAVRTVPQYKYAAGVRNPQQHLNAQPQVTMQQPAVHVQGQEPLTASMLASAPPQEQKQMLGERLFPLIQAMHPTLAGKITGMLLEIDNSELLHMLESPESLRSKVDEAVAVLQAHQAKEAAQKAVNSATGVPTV
# HIV Env fusion = inhibitors of HIV-1 Env-driven cell-cell fusion, primary screen, HeLa-JRFL effector, CEM21 target cells, luciferase; inhibition, % at 12.3 µM; 360,000 tested, 1.1% active; AID 651610, 2012;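 active means mean replicate inhibition score of at least 50 and every replicate individually at or above 50; inconclusive means only one of the two criteria met; inactive means mean below 50 and not all replicates reaching 50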;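 further: 0% = plate neutral controls and 100% = maraviroc near 300 nM; one replicate is shown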
# MT1-MMP act inh = blockers of MT1-MMP proenzyme processing, primary screen, HT1080 RFP-PRO-GFP cells, GFP/RFP fluorescence; 360,000 tested, 0.061% active; GFP/RFP ratio change, % at 20 µM; AID 651647, 2012; GFP/RFP ratio fluorescence, overnight; percent of plate control window, DMSO zero;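 active means GFP/RFP ratio change of at least 30% with cell ATP level not reduced by more than half and red fluorescence within 50% of control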; further: strong numbers were not always called active
#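 Read-out: GFP/RFP fluorescence ratio; Test system: RFP-PRO-GFP reporter HT1080 cells; Compound dosing: single-point 20 µM compound, 1% DMSO; Times: overnight compound exposure at 37 °C.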
# eIF4H inh = human eIF4H binding inhibitors, primary screen, translation initiation inhibitor project, biochemical, uHTS, fluorescence polarization; Eukaryotic translation initiation factor 4H (Homo sapiens), Q15056; eIF4H fluorescence polarization binding assay; inhibition, % at 35 µM; 290,000 tested, 0.94% active; AID 2012, 2009;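 active means 50% or more with normal probe brightness, or confirmed in later tests; inconclusive means above 50% with abnormal brightness, or retests that disagree; inactive means below 50% or failed in later tests; about a fifth of its hits are not listed in these tables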;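 further: calls also rest on retests at 20 µM and on dose response follow-up; 0% = protein and probe with vehicle and 100% = probe without protein; strong numbers were not always called active; many hits fall short of the cut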
# Yeast UUG start = modulators of yeast start codon fidelity, primary screen, whole organism, S. cerevisiae, single point, plate reader; S. cerevisiae UUG-firefly luciferase reporter, luminescence/redox ratio; activity score, % at 18.7 µM; 350,000 tested, 0.13% active;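 active means replicate mean at a twofold rise or more, about +100% in these data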;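 further: firefly luciferase made from a UUG start codon reports start codon fidelity; reporter light over untreated wells divided by growth signal over untreated wells; some hits fall short of that in this replicate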
# Rce1 inh = yeast Rce1p protease inhibitors, primary screen, biochemical, fluorescence, cell-free homogeneous; CAAX prenyl protease 2 (Saccharomyces cerevisiae (strain ATCC 204508 / S288c)), Q03530; yeast membranes, quenched prenylated peptide cleavage fluorescence; calls only; 290,000 tested, 0.27% active; AID 2563, 2010;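 active means fall in fluorescence gain of 50% or more versus controls, with final raw signal at or below 3038400; inconclusive means same 50% fall but final raw signal above 3038400; inactive means fall in fluorescence gain under 50%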;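 further: plate controls were neutral control wells for no effect and wells lacking membranes for full effect; tested at 10 µM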
# Target sequence (Q03530 whole entry, looked up): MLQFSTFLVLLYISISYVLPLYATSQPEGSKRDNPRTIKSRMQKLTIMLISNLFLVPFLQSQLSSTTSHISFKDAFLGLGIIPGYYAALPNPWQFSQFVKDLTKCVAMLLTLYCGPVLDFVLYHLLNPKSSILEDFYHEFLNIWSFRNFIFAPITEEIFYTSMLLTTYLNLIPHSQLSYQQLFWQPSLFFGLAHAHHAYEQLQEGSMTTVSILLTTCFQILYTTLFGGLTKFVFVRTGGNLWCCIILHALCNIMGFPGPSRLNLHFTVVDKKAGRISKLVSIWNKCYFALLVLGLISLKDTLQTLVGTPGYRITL
# CSC inhib = cancer stem cell viability inhibitors, primary screen, luminescence | inhibition, % at 7.5 µM | AID 2717, 2010 | cancer stem cell-like cells viability | 300,000 tested, 1.1% active;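 active means mean at 75% or more and at least half the replicates too; inconclusive means mean and replicates disagree; tested in HMLE shEcad cells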;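 further: 0% = median of negative and 100% = median of positive control wells; the first replicate is given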
# eIF4H inh retest = recorded beside eIF4H inh, whose call it bears; inhibition, %; compound at 20 µM; confirmation average;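 mean of two retest wells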
# PABP polyA inh retest = also measured in PABP polyA inh; calls as there; inhibition, %; compound at 20 µM; confirmation repeats;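 mean of two retest wells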
# MT1-MMP act inh RFP = further read-out of MT1-MMP act inh, marked with its call; RFP signal change, %; measured here: RFP expression control read;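 0 = vehicle wells; hits needed this value within 50% of zero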
# An asterisk follows results filed as active; i = inactive; ? = inconclusive; / = not tested or not shown; & = joins results of further samples.
SMILES,PABP polyA inh,HIV Env fusion,MT1-MMP act inh,MT1-MMP act inh RFP,eIF4H inh,Yeast UUG start,Rce1 inh,CSC inhib,others
COC(=O)C1=C(C)OC(N)=C(C#N)C1c1ccc(OC)c(CSc2ccccn2)c1 (stereo unspecified),-7,-278,-3,2,-1,-17,i,/,
O=C(NCCOc1cccnc1)C1CCC(=O)N(Cc2ccccc2F)C1 (stereo unspecified),-11,6,5,6,-6,-17,i,-5,
Nc1cc(=O)[nH]n1C1CCN(c2ccccc2)CC1,58,14,1,-1,15,-2,i,-9,eIF4H inh retest=16;PABP polyA inh retest=11
COc1ccc(/C=N/Nc2nc(-c3ccc(C)cc3)c(C#N)c(=O)[nH]2)cc1,-6,10,-8,-8,13,4,i,/,
NC(=O)C1CCN(C(=O)c2ccc(-c3ccccc3Cl)o2)CC1,/,/,-2,1,/,-5,/,-12,
CC(=O)Oc1cccc(N2C(=O)CC(Nc3ccc(N4CCOCC4)cc3)C2=O)c1 (stereo unspecified),12,/,-2,8,28,-16,i,-3,
CCc1csc(CCNC(=O)C2CCC(=O)N(Cc3cccc(C(F)(F)F)c3)C2)n1 (stereo unspecified),-3,39,-4,0,-8,-2,i,-10,
O=C(Cn1nc(-c2ccccc2Cl)ccc1=O)Nc1ccccc1-c1ccccc1,1,32,8,-3,-2,-7,i,10,
Cc1ccc(C(=O)N/N=C/c2ccc(OC(=O)c3ccccc3Cl)cc2)cn1,8,-16,2,2,-2,-16,i,/,
CC(=O)OC(C(=O)NCCc1ccccc1)c1cccnc1 (stereo unspecified),-7,-8,1,-3,-3,-17,i,-2,
CCc1ccccc1NC(=O)c1cc([N+](=O)[O-])ccc1N1CCOCC1,-7,-15,0,3,-12,4,i,/,
Cc1nc2ccc(NC(=O)c3ccc(S(=O)(=O)N(C)C)cc3)cc2s1,2,4,4,1,-3,/,i,-11,
CCOc1ccc(C(=O)NCCCn2ccnc2)cc1,-7,-21,2,1,5,9,i,-15,
COc1cc(CN2CCC(C(=O)N3CCN(c4ccccc4F)CC3)CC2)cc(OC)c1OC,0,-268,-1,-2,-10,-12,i,35,
O=C(NC1CC2CCCC(C1)N2C(=O)Nc1ccccc1)c1ccncc1 (stereo unspecified),-14,-52,5,5,0,0,i,/,
COc1cc(-c2nn3c(COc4ccccc4)nnc3s2)cc(OC)c1OC,-4,-81,5,-3,4,-12,i,-7,
Cc1cccc(NC(=O)CCNS(=O)(=O)c2cccc3nonc23)c1,4,10,-1,0,-11,-6,i,2,
O=C(Nc1ccc(C(=O)N2CCC(N3CCCC3)CC2)cc1)c1ccc(Br)o1,/,/,1,3,/,-10,/,-24,
CCOc1ccccc1Nc1ccc(C(=O)O)cc1N,16,-22,4,4,11,-13,i,-16,
Cc1ccccc1CSc1nccn1-c1ccccc1,15,/,0,3,-3,-25,i,21,
CCOC(=O)c1cc2sc(C)cc2n1CC(=O)NCCc1ccccc1,4,4,-3,0,-5,-12,i,-11,
Cc1ccc(C)c(OCC(=O)O/N=C(\N)c2ccccn2)c1,6,-145,11,5,-5,-23,i,8,
O=[N+]([O-])c1ccccc1S(=O)(=O)Nc1cccc(S(=O)(=O)N2CCCC2)c1,/,/,2,3,/,-7,/,-8,
CCS(=O)(=O)N1CCCC(C(=O)NCCCOC(C)C)C1 (stereo unspecified),-7,/,6,6,-14,-1,i,-11,
CCn1ccc(C(=O)Nc2sc3c(c2C(=O)OC)CCC3)n1,-1,/,1,2,10,-14,i,10,
CN1C(=O)NC(c2ccc(C(F)(F)F)cc2)C2=C1CC(C)(C)CC2=O (stereo unspecified),-5,?,4,2,-2,11,i,1,
CCn1ncc(NC(=S)NCCc2ccc(OC)c(OC)c2)c1C(N)=O,47,-6,-2,1,8,/,i,-3,
Cn1cc(Br)c(C(=O)NN2C(=O)C3C4C=CC(C5CC45)C3C2=O)n1 (stereo unspecified),-4,8,2,3,6,/,i,-7,
COc1ccccc1-c1noc2c1C(=O)N(Cc1cn(Cc3ccccc3)nn1)CC2,/,-16,3,-4,/,-4,/,/,
N/C(=N\OC(=O)c1cccc(Br)c1)c1ccccc1,2,-229,1,4,-1,-14,i,6,
Cc1ccc(N(CC(=O)NCCSc2nc3ccccc3s2)S(=O)(=O)c2ccccc2)c(C)c1,6,/,-15,-20,-11,-17,i,10,
O=c1ccsc2ccccc12,/,10,-2,5,/,-14,/,/,
CC1(C)C(=O)Nc2ccccc2N1C(=O)COC(=O)CSc1ccc(F)cc1,/,4,3,3,/,-9,/,-10,
O=C(c1ccc(F)cc1)N1CCC(C(=O)N2CCN(Cc3ccc4c(c3)OCO4)CC2)CC1,/,-1,/,/,/,-11,i,-5,
CCc1ccc(NC(=O)c2cnn(-c3ccccc3)c2C2CCNCC2)cc1,5,13,5,0,0,/,i,-9,
COC(=O)C1CCN(C(c2cccs2)c2sc3nc(C)nn3c2O)CC1 (stereo unspecified),2,/,0,3,1,-20,i,1,
CCOC(=O)C1CCCN(S(=O)(=O)c2ccc3c(c2)CC(C)N3C(=O)C2CC2)C1 (stereo unspecified),4,10,4,-3,7,-31,i,-10,
O=C1CC(NS(=O)(=O)c2cc(F)ccc2F)CN1c1cccc(F)c1 (stereo unspecified),/,-25,3,-2,/,/,i,-10,
O=C(Oc1ccccc1)Oc1ccc2c(c1)oc(=O)c1ccccc12,-2,/,2,0,12,-16&1,i,7,
CCC(C)NC(=O)c1ccc(N2CC3CC(C2)c2cccc(=O)n2C3)c(NC(=O)c2ccc(Br)o2)c1 (stereo unspecified),-12,-3,-6,0,-4,3,i,-11,

# A draw from above in order of SMILES length, highest first:
SMILES,PABP polyA inh,HIV Env fusion,MT1-MMP act inh,MT1-MMP act inh RFP,eIF4H inh,Yeast UUG start,Rce1 inh,CSC inhib,others
Cc1ccc(N(CC(=O)NCCSc2nc3ccccc3s2)S(=O)(=O)c2ccccc2)c(C)c1,6,/,-15,-20,-11,-17,i,10,
CCOC(=O)C1CCCN(S(=O)(=O)c2ccc3c(c2)CC(C)N3C(=O)C2CC2)C1 (stereo unspecified),4,10,4,-3,7,-31,i,-10,
O=C1CC(NS(=O)(=O)c2cc(F)ccc2F)CN1c1cccc(F)c1 (stereo unspecified),/,-25,3,-2,/,/,i,-10,
O=C(Oc1ccccc1)Oc1ccc2c(c1)oc(=O)c1ccccc12,-2,/,2,0,12,-16&1,i,7,
O=c1ccsc2ccccc12,/,10,-2,5,/,-14,/,/,

# (cont.)
SMILES,PABP polyA inh,HIV Env fusion,MT1-MMP act inh,MT1-MMP act inh RFP,eIF4H inh,Yeast UUG start,Rce1 inh,CSC inhib,others
CC(CCc1ccccc1)NC(=O)C(Cc1ccccc1)NC(N)=O (stereo unspecified),0,14,-4,-1,-14,-36,i,-8,
O=S1(=O)C=C[C@@H](CO)N1Cc1ccc(Br)cc1,/,7,3,1,/,-2,/,/,
COc1cnc(-c2ccccn2)nc1Oc1ccc(C(C)(C)C)cc1,2,-84,0,-7,12,-40,i,4,
COc1ccc(CC(=O)Nc2ccc(-c3nnc(-c4ccccc4)o3)cc2)cc1,-12,/,-4,-1,-10,14,/,2,
CC(C)c1ccc(C2/C(=C(/O)c3ccccc3)C(=O)C(=O)N2CCCN2CCOCC2)cc1 (stereo unspecified),-3,7,-1,1,-4,8,i,0,
COc1ccc(CN2CCN(Cc3cccc(F)c3)CC2)cc1OC,-8,-11,6,-2,-2,-12,i,-4,
Cc1noc(C)c1COC(=O)/C=C/c1ccc(Cl)cc1,-1,-9,2,4,-8,-6,i,/,
CNC(=O)CSc1n[nH]c(-c2cc(Cl)ccc2OC)n1,?,2,5,5,-4,/,i,-15,
COc1ccc(-c2cc(CNC(=O)CCl)on2)cc1,-4,/,3,3,-9,-10,i,7,
Cc1ccc(-c2noc(CSc3nnc(-c4ccncc4)n3-c3ccc(C)cc3)n2)cc1,-5,48,-1,-10,1,/,i,21,
COc1cc(Br)cc(/C=N/NC(=O)Cc2ccc(C(F)(F)F)cc2[N+](=O)[O-])c1O,0,/,13,-6,1,-9,i,40,
O=c1c2ccccc2c(-c2ccc(Br)cc2)nn1Cc1ccccc1,-5,/,-7,-5,-4,/,i,-10,
O=C(CN1CCN(c2ncccn2)CC1)NCCC1=CCCCC1,-3,-5,-8,1,-6,-5,i,-1,
CCOCCCNC(=O)CSCc1nc(-c2ccc(SC)cc2)oc1C,1,0,0,4,0,/,i,-6,
CC(C)(C)n1nnnc1C(c1cccnc1)N1CCN(c2ccccc2F)CC1 (stereo unspecified),3,/,2,4,4,/,/,-5,
COc1ccc(-n2nc(C(=O)NCC(=O)N3CCC(C(N)=O)CC3)c3ccccc3c2=O)cc1OC,-2,-2,4,5,0,-1,i,-9,
COC(=O)c1cc(OC)c(OC)cc1NC(=O)CN1C(=O)c2ccccc2C1=O,-4,-20,0,-2,-5,-12,i,-7,
O=C(NCCc1ccccc1)C(=O)NCC1CCCN1S(=O)(=O)c1ccccc1 (stereo unspecified),/,4,4,-10,/,-18,i,7,
Cc1cc(C)nc(NS(=O)(=O)c2ccc(NC(=O)NC3CCCCC3)cc2)n1,-8,3,7,0,1,-3,i,0,
CC1CN(C(=O)CN(C)S(=O)(=O)c2ccc3ccccc3c2)CC(C)O1 (stereo unspecified),9,2,1,-3,2,-6,i,10,
CCCCNC(=O)c1cc(S(=O)(=O)N2CCCCC2)oc1C,6,-362,8,3,-9,-16,i,-3,
CC(C(=O)NCc1ccco1)n1cc(C(=O)c2ccco2)c2ccccc21 (stereo unspecified),-1,/,2,1,-4,3,i,-13,
O=C(Nc1ccc(Cl)cc1F)C1CCCN(C2=NS(=O)(=O)c3ccccc32)C1 (stereo unspecified),/,5,-2,1,/,-16,/,/,
Cc1noc(C)c1COc1ccccc1C(=O)Nc1ccc(C(N)=O)cc1,/,/,-1,1,/,-6,/,-11,
CC(C(=O)NCc1ccc(F)cc1)c1ccc([N+](=O)[O-])cc1 (stereo unspecified),37,1,8,5,-7,/,i,8,
CC(=O)c1cccc(NC(=O)c2ccccc2OCc2ccc(F)cc2)c1,10,18,0,-4,-12,-2,i,3,
COc1ccc(NC(=S)NC(C)c2ccncc2)cc1OC (stereo unspecified),14,-5,3,6,-6,-29,i,-17,
CC(=O)OCc1c(-c2ccccc2)c2cc([N+](=O)[O-])ccc2n1C,-5,1,6,-4,5,-14,i,16,
COc1cccc2c(C)nc(Nc3nc(CSc4nnc(C)s4)cc(=O)[nH]3)nc12,-10,6,-2,-9,-5,-22,i,2,
C/C(N)=C(/C#N)C(=O)CSc1nc2ccccc2c(=O)n1-c1ccccc1C,-4,19,1,-2,0,-13,i,-15,
CCOc1cc(S(=O)(=O)NC2CC(C)(C)NC(C)(C)C2)ccc1F,8,-7,0,4,2,-20,i,-2,
CN1CCN(C(=O)c2ccccc2-c2nc(-c3ccc(Cl)cc3)no2)CC1,1,11,-5,-1,-9,-9,i,9,

# Source: PubChem
